# Sa ugtP lethal: growth inhibition of S. aureus ugtP deletion strain; growth inhibition, % (no concentration beside the values); hit rate 0.54% among 330,000; AID 1259309; S. aureus RN4220 ugtP deletion, OD600 growth, 16 h; some inactives read as strong as hits;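 active = z-score under -3 and OD600 up to 0.15 on both plates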;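 note: plate controls were untreated wells for no effect and antibiotic for full effect; wells of about 80 µL received 100 nL stock; the first replicate is given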
# PrP UTR inh: inhibition of PrP 5' UTR reporter expression; cell-based PrP 5' UTR mRNA reporter, plate reader; inhibition, % (test concentration not listed); hit rate 0.35% among 340,000;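 active = every replicate at 50% or more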;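 note: 0 = median of the neutral control wells; tested in H4 reporter cells; numbers are from one replicate; inactives centre near -14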
# BJeLR viability: BJeLR cell viability loss; BJeLR (HRASV12) viability, CellTiter-Glo ATP luminescence, 48 h; reference of the scale not given here; inhibition, % (test concentration not listed); hit rate 0.17% among 300,000;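 active = replicate mean above 50%; inconclusive = above 50% but judged a plate artefact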;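 note: 50 nL library stock added to about 25 µL; numbers are from one replicate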
# Mtb hypoxia inh: Mtb hypoxia fluorescent reporter inhibition | M. tuberculosis hypoxia-regulated fluorescent reporter, fluorescence | fluorescence inhibition, % (no concentration beside the values) | hit rate 0.1% among 300,000;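 active = 35 to 45% if threefold the growth effect, above 45% if 1.5-fold the growth effect; inactive = the rest, general growth blockers included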;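 note: wells of about 50 µL received 100 nL stock; 0% = vehicle wells and 100% = reference inhibitor wells; whole bacteria with a GFP reporter of the hypoxia response; strong numbers were not always called active; many hits fall short of the cut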
# Autofluor counter: counter-screen for toxin protease inhibitors: compound fluorescence; fluorescence intensity (no concentration beside the values); compound autofluorescence counterscreen, microsphere flow cytometry; hits give high values; hit rate 3.1% among 360,000;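 active = at least 3 SD above the mean of all compounds, about 16000 in these data; inconclusive = too few beads counted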;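 note: 100 nL of 1 mM stock went into each well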
# RN4220 kill: kills Staphylococcus aureus RN4220; inhibition, % (test concentration not listed); hit rate 0.33% among 330,000; S. aureus RN4220 growth, OD600, 16 h;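 active = z-score of -3 or lower and OD600 up to 0.18 on both plates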;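 note: plate controls were untreated cells for no effect and reference antibiotic for full effect; stock transfer was 100 nL into about 80 µL; one replicate is shown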
# Mtb hypoxia inh growth: further read-out of Mtb hypoxia inh, marked with its call; growth inhibition, %; measured here: M. tuberculosis growth (absorbance);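 0% = vehicle and 100% = reference antibiotic; read after six days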
# * hit, by the source's call; ? = inconclusive; · = not tested or not shown.
# Sample of the layout (3 entries):
SMILES,Sa ugtP lethal,PrP UTR inh,BJeLR viability,Mtb hypoxia inh,Mtb hypoxia inh growth,Autofluor counter,RN4220 kill
O=C(NCCCn1ccnc1)C1CC2CCC1C2 (configuration not stated),10.1,-14.6,-3.4,8.9,4.6,4573,11.8
O=c1[nH]nc(Cc2ccc(-c3cccc(Cl)c3)o2)c2ccccc12,-3.7,-4.2,2.1,4.9,5.5,7981,-1.2
COCCNC(=O)CN(C(=O)CCC(=O)Nc1ccccn1)c1cc(C)ccc1C,5.6,-11.5,0.0,1.4,10.9,2934,1.8

# Main list, previewed entries included:
SMILES,Sa ugtP lethal,PrP UTR inh,BJeLR viability,Mtb hypoxia inh,Mtb hypoxia inh growth,Autofluor counter,RN4220 kill
O=C(NCCCn1ccnc1)C1CC2CCC1C2 (configuration not stated),10.1,-14.6,-3.4,8.9,4.6,4573,11.8
O=c1[nH]nc(Cc2ccc(-c3cccc(Cl)c3)o2)c2ccccc12,-3.7,-4.2,2.1,4.9,5.5,7981,-1.2
COCCNC(=O)CN(C(=O)CCC(=O)Nc1ccccn1)c1cc(C)ccc1C,5.6,-11.5,0.0,1.4,10.9,2934,1.8
COc1ccc(-c2c(-c3ccccc3OC)sc3ccccc23)cc1OC,12.3,-10.0,4.6,2.1,14.6,4011,-0.5
Cc1ccc(C(=O)Nc2ccccn2)cc1S(=O)(=O)N1CCOCC1,-2.8,-13.5,11.0,-8.9,0.0,8613,-3.1
N#C/C=C/C#N,11.8,-13.6,·,8.9,1.9,5238,8.8
CCOC(=O)C1=C(COC(=O)c2ccc(Cl)cc2[N+](=O)[O-])NC(=O)NC1C (configuration not stated),2.9,-3.6,-6.5,4.6,3.4,?,4.7
CCC(=NCCc1ccccc1)c1c(O)n(C)c(=O)n(C)c1=O,12.2,-63.8,3.8,3.1,-3.1,3815,4.7
CC1CCN(CCc2nc3cc(NC(=O)Nc4ccccc4)ccc3n2C)CC1,1.7,-38.8,-1.3,19.9,2.3,?,0.2
COc1ccc2nc(SCC(=O)N(C)CC(=O)Nc3ccc(F)cc3)[nH]c2c1,4.8,3.6,-5.3,9.4,15.2,5342,2.4
O=C(O)CSc1nnc(CSc2nc3ccccc3s2)n1-c1ccccc1,3.9,-1.4,4.8,5.3,-3.1,4446,6.4
Cc1ccc(S(=O)(=O)N(C)c2ccc(OCC(=O)O)cc2)cc1,6.4,-5.7,2.3,6.3,-2.0,3087,6.8
Cc1nc(-c2ccccc2)sc1-c1nc(-c2cccnc2)ncc1S(=O)(=O)c1ccccc1,11.6,-21.4,6.2,·,·,3163,4.2
Cc1ccc(NC(=O)CN2C(=O)CCS(=O)(=O)c3ccccc32)cc1Cl,-0.4,0.4,3.5,2.3,0.1,5140,3.0
COc1ccc(NC(=O)NC2(C(=O)N3CCN4CCCC4C3)CCCCC2)cc1 (configuration not stated),6.3,-25.5,-6.9,5.2,7.2,5248,1.4
Fc1ccc(CSc2nnc(-c3cc4c(s3)-c3ccccc3CC4)o2)cc1,15.8,-7.4,-5.8,·,·,2957,-9.2
CCOC(=O)N1CCN(S(=O)(=O)c2ccc(C(=O)Nc3nnc(CSC)o3)cc2)CC1,-6.2,-6.5,2.9,5.4,4.7,2544,10.8
Cn1c(/C(C#N)=C/c2ccncc2)nc2ccccc21,3.2,3.5,·,17.6,4.1,2059,6.2
Cc1ccsc1/C=N/NC(=O)Cc1ccc(Cl)cc1,·,-36.4,14.3,·,·,4531,·
CCOc1cc2c(cc1OCC)-n1cccc1C(c1ccc(OC)c(OC)c1)NC2 (configuration not stated),-12.4,-9.3,-6.3,-6.0,-0.6,3642,-0.5
CC(=O)c1c(C(C)=O)c(C)n(NC(=O)c2cccnc2)c1C,14.0,0.4,-17.9,1.7,-3.4,8128,0.8
Cc1ccc(/C=N/NC(=O)c2c(-c3ccccc3)noc2C)o1,·,-6.9,-14.1,·,·,2579,·
Cc1nnc(SCc2nc3sc4c(c3c(=O)[nH]2)CCCC4)[nH]c1=O,4.5,-18.3,-9.5,14.4,8.9,4060,3.6
CCOC(CNC(=O)CN1C(=O)COc2ccc(S(=O)(=O)N3CC(C)CC(C)C3)cc21)OCC (configuration not stated),1.6,17.6,-7.7,·,·,4416,1.7
Cc1c(C(=O)NC(=S)Nc2ccc3c4c(cccc24)CC3)cccc1[N+](=O)[O-],8.4,-4.5,-7.5,·,·,3033,-0.9
C=CCC(NCc1ccccc1)c1ccc(C)o1 (configuration not stated),2.4,2.6,-6.3,6.0,13.9,?,3.5
O=C(Nc1cccc(C(=O)Nc2cccc(C(F)(F)F)c2)c1)c1ccc(=O)[nH]c1,-3.9,-18.1,-4.3,9.5,-0.4,5704,-0.3
O=C(N/N=C/c1ccc(O)c([N+](=O)[O-])c1)C(O)(c1ccccc1)c1ccccc1,·,-20.2,-11.4,·,·,3694,·
O=C1CCC(=O)N1c1ccc(CSc2nnnn2C2CCCCC2)cc1,-8.1,-13.4,-5.8,-6.4,-7.7,3362,7.8
C[C@H](NC(=O)c1ccc(Cl)c(S(=O)(=O)N2CCOCC2)c1)c1nc2ccccc2[nH]1,5.2,-10.1,·,-6.8,0.1,3840,3.6
CN(C)C(=O)c1ccc(NC(=O)COC(=O)CC23CC4CC(CC(Br)(C4)C2)C3)cc1,13.0,-23.2,-5.9,8.9,0.0,4124,4.6
Cc1noc(C)c1S(=O)(=O)N1CCCC(C(=O)NC2CCCCC2)C1 (configuration not stated),-0.3,-21.3,-0.8,-3.1,-11.0,12700,-1.0
CC1(c2nnc(-c3ccccc3)o2)CC(c2ccc(F)cc2)=NO1 (configuration not stated),0.1,-12.0,-6.8,4.8,2.2,3624,1.2
COc1cccc(COC(=O)C2CCN(C(=O)c3ccc(F)cc3)CC2)c1OC,17.1,-18.2,-3.4,7.8,7.9,5993,3.8
CN1CCN(c2ccc([N+](=O)[O-])cc2C=NNC(=O)c2cccc([N+](=O)[O-])c2)CC1,8.0,·,·,23.2,4.4,·,4.9
COCCNC(=O)Cn1cnc2ccc(S(=O)(=O)N3CCC(C)CC3)cc2c1=O,-1.3,-3.0,-5.4,-6.5,11.8,4689,-6.8
CCCc1nnc(NC(=O)CCC(=O)N2CCN(c3ccccc3)CC2)s1,-8.2,-2.7,9.3,-14.1,-2.2,5819,-3.4
CC(=NNc1ccc([N+](=O)[O-])cc1[N+](=O)[O-])C(C)(C)C(C(=O)O)C(=O)O,-0.8,·,·,1.6,7.4,·,4.2
CCCN(CCC)CC(O)CN1C(=O)N(CN2C(=O)N(CC(O)CN(CCC)CCC)C(=O)C2(C)C)C(C)(C)C1=O (configuration not stated),-1.3,-18.3,-0.5,5.9,10.0,4587,4.6
C=CCOC(=O)C1=C(C)N=c2sc(=C3C(=O)N(CC(=O)O)c4ccccc43)c(=O)n2C1c1ccc(OC)cc1 (configuration not stated),23.0,·,·,16.5,7.6,·,10.3

# Reformatted: 7 of the compounds above.
mol	Sa ugtP lethal	PrP UTR inh	BJeLR viability	Mtb hypoxia inh	Mtb hypoxia inh growth	Autofluor counter	RN4220 kill
C=CCOC(=O)C1=C(C)N=c2sc(=C3C(=O)N(CC(=O)O)c4ccccc43)c(=O)n2C1c1ccc(OC)cc1 (configuration not stated)	23.0	·	·	16.5	7.6	·	10.3
CC1(c2nnc(-c3ccccc3)o2)CC(c2ccc(F)cc2)=NO1 (configuration not stated)	0.1	-12.0	-6.8	4.8	2.2	3624	1.2
CCCc1nnc(NC(=O)CCC(=O)N2CCN(c3ccccc3)CC2)s1	-8.2	-2.7	9.3	-14.1	-2.2	5819	-3.4
CN1CCN(c2ccc([N+](=O)[O-])cc2C=NNC(=O)c2cccc([N+](=O)[O-])c2)CC1	8.0	·	·	23.2	4.4	·	4.9
COc1cccc(COC(=O)C2CCN(C(=O)c3ccc(F)cc3)CC2)c1OC	17.1	-18.2	-3.4	7.8	7.9	5993	3.8
CC(=NNc1ccc([N+](=O)[O-])cc1[N+](=O)[O-])C(C)(C)C(C(=O)O)C(=O)O	-0.8	·	·	1.6	7.4	·	4.2
Cc1noc(C)c1S(=O)(=O)N1CCCC(C(=O)NC2CCCCC2)C1 (configuration not stated)	-0.3	-21.3	-0.8	-3.1	-11.0	12700	-1.0

# (cont.)
SMILES,Sa ugtP lethal,PrP UTR inh,BJeLR viability,Mtb hypoxia inh,Mtb hypoxia inh growth,Autofluor counter,RN4220 kill
Cc1cccc(NC(=O)N2CCC(NC(=O)C3CCCCC3)CC2)c1,6.6,-17.7,-24.2,6.6,2.1,3951,3.4
Cc1ccc(NC(=O)c2ccc(Nc3ccccc3F)nc2)cc1,-11.2,-12.0,9.5,10.4,0.7,2479,2.0
O=C(NCc1ccco1)C1OCCc2ccccc21 (configuration not stated),-1.1,-19.8,-6.7,·,·,4531,5.6
CCCOc1c(Br)cc(C(=O)OCc2cc(=O)n3ccsc3n2)cc1OC,10.4,·,·,10.5,5.3,?,10.6
O=C(NN=Cc1ccccc1OC(F)F)C1=COCCO1,3.9,·,·,·,·,·,12.7
CCOC(=O)C1=C(COC(=O)COc2cccc(C)c2C)NC(=O)NC1C (configuration not stated),12.3,-22.4,·,2.1,1.1,8220,6.1
CCOc1ccc(NC(=O)CCc2nnc3ccc(N4CCC5(CC4)OCCO5)nn23)cc1,10.2,-1.1,17.9,8.8,1.5,3645,3.8
CCc1ccc(CN(C)C(=O)CCc2nnc(COc3ccccc3)o2)cc1,1.7,-32.4,5.2,4.6,9.6,2530,3.9
Cc1ccc(C)n1-n1c(C)nc2scc(-c3cccs3)c2c1=O,-3.0,-16.2,2.0,·,·,3446,2.7
Cc1cccc(CSCc2ccc(C(=O)O)o2)c1,-0.6,-19.4,0.2,17.4,3.6,3956,-1.1
Cn1c(N)c(C(=O)CSc2nc3ccccc3[nH]2)c(=O)n(C)c1=O,3.2,-14.8,8.6,-6.9,6.2,4533,1.5
CN(C)S(=O)(=O)c1cccc(NC(=S)Nc2cc(Cl)cc(Cl)c2)c1,99.9*,-17.3,-2.0,9.3,-2.8,23036*,99.7*
CC(=O)Nc1ccc(NC(=O)C(C)OC(=O)C2(c3ccc(Cl)cc3)CCCC2)cc1 (configuration not stated),-3.2,-12.5,0.7,12.8,6.2,2493,-3.8
COc1ccc(/C=N/NS(=O)(=O)c2ccccc2)cc1OC(=O)c1ccc(C)cc1,·,-7.8,0.1,·,·,2434,·
Cc1cc(=O)cc(C)n1-c1ccc(Cl)cc1,3.7,-2.0,12.1,2.7,5.0,3296,15.8
COc1ccc2[nH]cc(C(=O)CN3CCCCC3)c2c1,-5.1,-17.2,1.9,-2.5,2.8,2551,1.2
O=[N+]([O-])c1cccc(/C=N/Nc2nc(NCc3ccccc3)nc(N3CCOCC3)n2)c1O,·,-2.2,7.3,·,·,3222,·
CCOC(=O)CCN(Cc1cccs1)S(=O)(=O)c1ccc(Cl)cc1,-0.3,-20.6,10.7,-7.7,-0.5,11988,1.0
CCCCc1ccc(NS(=O)(=O)c2cccc(C(=O)N3CCCN(C)CC3)c2)cc1,13.6,-23.5,·,12.8,4.4,6289,-0.4
Cc1ccc2cc3cc(C(=O)N4CC(C)CC(C)C4)oc3nc2c1 (configuration not stated),-2.3,-47.6,6.6,8.9,8.0,3739,-3.2

# Profiles, looked up by structure:
# `COCCNC(=O)CN(C(=O)CCC(=O)Nc1ccccn1)c1cc(C)ccc1C` reads Sa ugtP lethal: 5.6; PrP UTR inh: -11.5; BJeLR viability: 0.0; Mtb hypoxia inh: 1.4; Mtb hypoxia inh growth: 10.9; Autofluor counter: 2934; RN4220 kill: 1.8
# `CN(C)C(=O)c1ccc(NC(=O)COC(=O)CC23CC4CC(CC(Br)(C4)C2)C3)cc1` reads Sa ugtP lethal: 13.0; PrP UTR inh: -23.2; BJeLR viability: -5.9; Mtb hypoxia inh: 8.9; Mtb hypoxia inh growth: 0.0; Autofluor counter: 4124; RN4220 kill: 4.6

# The listing continues.
SMILES,Sa ugtP lethal,PrP UTR inh,BJeLR viability,Mtb hypoxia inh,Mtb hypoxia inh growth,Autofluor counter,RN4220 kill
CC1CN1P(=S)(c1ccccc1)N1CC1C (configuration not stated),1.1,-1.7,·,7.4,10.7,3865,3.6
COc1ccc(N(CC(=O)Nc2ccc3c(c2)OCO3)S(=O)(=O)c2ccccc2)cc1OC,1.7,-11.1,7.3,10.5,2.9,6118,0.3
COc1cccc(N(CC(=O)NC2CCCCC2)C(=O)CCC(=O)Nc2nccs2)c1,14.4,-6.5,1.6,-1.5,7.2,3508,0.1
COC(=O)c1sc2ccccc2c1-n1cccc1C(=O)C(=O)Nc1ccc(C)cc1,45.2,-29.5,-1.2,·,·,2638,-4.3
Cc1cccc(OCC(=O)Nc2cc(S(=O)(=O)N3CCCCC3)ccc2N2CCN(C)CC2)c1,3.9,-19.8,23.4,11.3,9.2,4342,4.9

# Screening data deposited in PubChem by several laboratories.
